AF4-AF9 inh – inhibitors of AF4 peptide binding to AF9, primary screen, biochemical, AlphaScreen, biotin-AF4 peptide, FLAG-AF9, single point; Protein AF-9 (Homo sapiens), P42568; inhibition, % at 10 µM; 350,000 tested, 0.47% active;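 active means every replicate reaching a set inhibition limit, whatever the replicate mean, cut at about 25% in these data; inconclusive means mean inhibition reaches that limit but some replicates miss it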;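 further: 0% = plate neutral control median and 100% = total signal loss; the record names both 10 and 1 µM as test concentration; the first replicate is given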
Target sequence (P42568 whole entry, looked up): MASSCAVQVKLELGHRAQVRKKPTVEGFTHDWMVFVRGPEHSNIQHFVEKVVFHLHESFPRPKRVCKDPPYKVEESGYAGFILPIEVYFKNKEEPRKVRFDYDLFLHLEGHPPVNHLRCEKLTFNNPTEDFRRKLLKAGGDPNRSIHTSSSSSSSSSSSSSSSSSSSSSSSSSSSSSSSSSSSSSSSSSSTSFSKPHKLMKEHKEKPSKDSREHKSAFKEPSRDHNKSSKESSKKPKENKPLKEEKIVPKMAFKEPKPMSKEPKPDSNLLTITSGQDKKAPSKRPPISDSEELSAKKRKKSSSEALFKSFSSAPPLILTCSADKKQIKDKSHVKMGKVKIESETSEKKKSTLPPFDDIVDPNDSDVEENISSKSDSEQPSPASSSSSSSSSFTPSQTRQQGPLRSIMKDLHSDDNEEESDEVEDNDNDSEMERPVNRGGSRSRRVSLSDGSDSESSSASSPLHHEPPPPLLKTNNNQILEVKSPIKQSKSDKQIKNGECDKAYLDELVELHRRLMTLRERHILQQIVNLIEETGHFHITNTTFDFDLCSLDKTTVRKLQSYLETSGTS
The depositor's hits bear a star; ? = inconclusive; & = joins results of further samples.

mol	AF4-AF9 inh
COc1ccccc1-c1ccc([C@@H]2[C@@H](CO)N3CCCCN(C(=O)c4cccnc4)C[C@@H]23)cc1	0.2
CO[C@H]1CN(C)C(=O)c2cc(NC(=O)Nc3ccccc3F)ccc2OC[C@H](C)N(C)C[C@@H]1C	-2.0
CCOC(=O)[C@]12CCC=C1N(Cc1ccc(Cl)cc1Cl)C(=O)[C@H](CC(=O)NCC13CC4CC(CC(C4)C1)C3)C2	-14.2
COc1cccc(S(=O)(=O)N2CCCCN3[C@@H](CO)[C@@H](c4ccc(C#CCC(C)C)cc4)[C@@H]3C2)c1	8.7
CO[C@@H]1CN(C)C(=O)c2cc(NC(=O)c3cnccn3)ccc2OC[C@@H](C)N(CC2CC2)C[C@H]1C	-0.6
COCC(=O)N1C[C@H](C)[C@@H](OC)CN(C)C(=O)c2cc(NC(=O)Nc3ccccc3)ccc2OC[C@H]1C	-1.1
O=C(C[C@H]1CC[C@H]2[C@@H](COC[C@H](O)CN2Cc2ccccc2)O1)N[C@@H]1CCN(Cc2ccccc2)C1	5.9
C[C@@H]1CN([C@H](C)CO)C(=O)c2cc(C3=CCCCC3)cnc2O[C@@H]1CN(C)C(=O)Cc1cccnc1	-1.0
O=C(Cc1ccncc1)N[C@@H]1CC[C@H](CCn2cc(-c3ccccc3F)nn2)O[C@@H]1CO	-0.3
C[C@@H]1CN([C@@H](C)CO)C(=O)c2cccc(NS(=O)(=O)c3ccccc3)c2O[C@H]1CN(C)C(=O)NC1CCCCC1	-2.2
C[C@@H]1CN([C@@H](C)CO)C(=O)Cc2cc(NC(=O)CCC(F)(F)F)ccc2O[C@H]1CN(C)C(=O)Nc1ccc2c(c1)OCO2	-1.5
N#C[C@@H]1[C@H](c2ccc(-c3ccc(F)cc3)cc2)[C@H](CO)N1C(=O)Cc1ccccc1	-5.3
Cc1noc(C)c1NC(=O)Nc1ccc2c(c1)C(=O)N([C@H](C)CO)C[C@@H](C)[C@@H](CN(C)S(=O)(=O)c1ccc(Cl)cc1)O2	0.6
COc1cc(NC(=O)CCN2CCN(c3ccccc3OC)CC2)cc(OC)c1	5.4
CC(C)C#Cc1ccc2c(c1)O[C@@H](CN(C)S(=O)(=O)c1cn(C)cn1)[C@H](C)CN([C@H](C)CO)S2(=O)=O	0.7
O=C(CC1CC1)N1CC(=O)N2[C@@H](CO)[C@@H](c3ccc(C#Cc4ccccc4)cc3)[C@@H]2C1	-3.6
C[C@@H]1CCCCO[C@H](CN(C)C(=O)NC2CCCCC2)[C@H](C)CN([C@H](C)CO)C(=O)c2cc(NC(=O)Nc3cccc4ccccc34)ccc2O1	0.1
O=C(NCC1CC1)[C@H]1[C@H](CO)[C@H]2Cn3c(ccc(-c4cccc(F)c4)c3=O)[C@H]2N1CC1CCOCC1	1.6
CC(=O)Nc1ccc(OCc2ccccc2)cc1[N+](=O)[O-]	5.0
CO[C@@H]1CN(C)C(=O)c2ccc(NC(=O)C3CCCC3)cc2OC[C@H](C)N(S(C)(=O)=O)C[C@H]1C	-3.0
CCS(=O)(=O)N1CCCCN2[C@H](CO)[C@@H](c3ccc(-c4ccccc4F)cc3)[C@H]2C1	7.0
Cc1ccc(S(=O)(=O)N[C@H]2CC[C@H](CCn3cc(C4CCCC4)nn3)O[C@@H]2CO)cc1	-10.7
O=C(C[C@@H]1C=C[C@@H](NC(=O)C2CCC2)[C@@H](CO)O1)Nc1nccs1	-1.6
CCCNC(=O)N1C[C@H](O)COC[C@H]2O[C@@H](CC(=O)NCCCN3CCOCC3)CC[C@@H]21	-1.8
O=C(Nc1cc(F)ccc1F)N[C@@H]1CC[C@H](CCn2cc(C3CCCCC3)nn2)O[C@@H]1CO	0.3
C[C@H]1CN([C@@H](C)CO)C(=O)c2cc(Br)cnc2O[C@H]1CN(C)C(=O)c1ccccc1F	-2.4
COc1ccc(CNC(=O)C[C@@H]2CC[C@H](NC(=O)c3cccc(F)c3)[C@@H](CO)O2)cc1	-0.5
CNC(=O)C[C@H]1CC[C@H]2[C@H](COc3ccc(NC(=O)c4cccc(F)c4)cc3C(=O)N2C)O1	-0.3&-0.4
CC1(C(=O)NCc2ccc3c(c2)OCO3)CCN1C(=O)C1(c2ccc(Cl)cc2)CC1 (centres undefined)	1.3
Cc1cc(S(=O)(=O)NC(=O)[C@H]2O[C@@H](n3cnc4c(N)ncnc43)[C@H](O)[C@@H]2O)ccc1Br	-0.6
CC(C)n1nc(C(=O)OCC(=O)NCCc2ccc(S(N)(=O)=O)cc2)c2ccccc2c1=O	-14.4
CO[C@@H](CN(C)S(=O)(=O)c1ccccc1)[C@@H](C)CN(Cc1ccccc1Cl)[C@H](C)CO	-5.2
C[C@H]1CN([C@@H](C)CO)C(=O)c2ccccc2-c2ccccc2CO[C@@H]1CN(C)C(=O)c1ccc(F)cc1	-3.4
COCC(=O)N1CCC2(CC1)CN(Cc1ccccn1)[C@@H](CO)c1[nH]c3cc(OC)ccc3c12	-1.1
CC(C)(O)C#Cc1ccc([C@H]2[C@@H](CO)N3CCCCN(S(C)(=O)=O)C[C@@H]23)cc1	-3.8
O=C(c1ccc(F)cc1)N1CC(=O)N2[C@H](C1)[C@H](c1ccc(-c3ccccc3)cc1)[C@@H]2CO	-0.7

Entries listed so far with an aryl methoxy group:
mol	AF4-AF9 inh
COc1ccccc1-c1ccc([C@@H]2[C@@H](CO)N3CCCCN(C(=O)c4cccnc4)C[C@@H]23)cc1	0.2
COc1cccc(S(=O)(=O)N2CCCCN3[C@@H](CO)[C@@H](c4ccc(C#CCC(C)C)cc4)[C@@H]3C2)c1	8.7
COc1cc(NC(=O)CCN2CCN(c3ccccc3OC)CC2)cc(OC)c1	5.4
COc1ccc(CNC(=O)C[C@@H]2CC[C@H](NC(=O)c3cccc(F)c3)[C@@H](CO)O2)cc1	-0.5
COCC(=O)N1CCC2(CC1)CN(Cc1ccccn1)[C@@H](CO)c1[nH]c3cc(OC)ccc3c12	-1.1

(further entries)
mol	AF4-AF9 inh
C[C@@H]1CN([C@H](C)CO)C(=O)CCCn2cc(nn2)CO[C@@H]1CN(C)C(=O)Nc1ccc(N2CCN(C)CC2)cc1	1.8
O=C(C[C@H]1C=C[C@H](NS(=O)(=O)c2ccc(F)cc2)[C@H](CO)O1)NCc1ccc(Cl)c(Cl)c1	-0.8
COc1ccc(-c2ccc(C(=O)NCCc3ccccc3)c3occc23)c(C)c1	0.6
COCC#Cc1cnc2c(c1)C(=O)N([C@H](C)CO)C[C@H](C)[C@H](CN(C)C(=O)C1CCCCC1)O2	-2.0
CCCNC(=O)N1C[C@@H]2[C@H](c3ccccc31)[C@@H](CO)N2Cc1cc(F)ccc1F	-0.8
C[C@@H]1CN([C@@H](C)CO)C(=O)c2cc(NS(=O)(=O)c3cccs3)ccc2O[C@@H](C)CCCCO[C@@H]1CN(C)C(=O)Nc1ccc2c(c1)OCO2	1.5
C[C@H](CO)N1C[C@H](C)[C@H](CN(C)S(=O)(=O)c2ccc(F)cc2)OCCCC[C@H](C)Oc2ccc(NC(=O)C3CCCCC3)cc2C1=O	-2.5
CC(C)NC(=O)N[C@H]1C=C[C@@H](CC(=O)NCCN2CCCC2)O[C@@H]1CO	-2.1
COc1ccc(S(=O)(=O)Nc2cccc3c2O[C@@H](CN(C)C)[C@H](C)CN([C@H](C)CO)C3=O)cc1	-0.2
C[C@@H]1CN([C@@H](C)CO)C(=O)c2cc(C#Cc3ccccc3)cnc2O[C@H]1CN(C)S(=O)(=O)c1ccccc1F	-3.7
COc1ccc(NC(=O)N2CC(=O)N3[C@H](CO)[C@@H](c4ccc(C5=CCCC5)cc4)[C@@H]3C2)cc1	?
O=C([C@H]1[C@H](CO)[C@H]2Cn3c(cccc3=O)[C@H]2N1CC1CCCC1)N1CCc2ccccc2C1	1.1
CCC(=O)N[C@H]1C=C[C@H](CC(=O)NCC2CCCCC2)O[C@@H]1CO	-2.8
C[C@H](CO)N1C[C@H](C)[C@@H](CN(C)C(=O)Nc2ccccc2)Oc2c(NC(=O)C3CC3)cccc2C1=O	-4.1
CCC(=O)N1C[C@H](C)[C@H](OC)CN(C)C(=O)c2cc(NC(=O)Nc3ccc(Cl)cc3)ccc2OC[C@H]1C	3.5
CCC(=O)N(C)C[C@H]1Oc2ncc(C#Cc3ccccc3)cc2C(=O)N([C@@H](C)CO)C[C@@H]1C	1.1
CC(=O)C[C@@H](O)CC(=O)[C@@H]1OC(=O)CCCCCc2ccccc21	-2.6
CN1CCN(C(=O)C[C@@H]2C[C@H]3c4cc(NC(=O)CC5CC5)ccc4O[C@H]3[C@@H](CO)O2)CC1	-13.4
C[C@H](CO)N1C[C@H](C)[C@H](CN(C)S(C)(=O)=O)Oc2c(NC(=O)c3ccncc3)cccc2C1=O	-2.6
Cc1ccccc1P(=O)(c1ccccc1)c1ccccc1C	1.0
CC(C)NC(=O)Nc1ccc2c(c1)C(=O)N([C@@H](C)CO)C[C@@H](C)[C@H](CN(C)C(=O)Nc1ccc(F)cc1)O2	0.6
CC(C)CC(N)c1csc(NC(=O)NCCc2ccccc2)n1 (centres undefined)	1.1
COc1ccc(NC(=O)c2cc(C3CCCCN3C(=O)c3ccccc3)on2)c(C)c1 (centres undefined)	-1.0
CCCC(=O)N1CC2(C1)CN(S(=O)(=O)c1ccc(C)cc1)[C@H](CO)c1[nH]c3cc(OC)ccc3c12	2.0

Continued; it opens with the 3 that closed the last part.
CC(C)CC(N)c1csc(NC(=O)NCCc2ccccc2)n1 (centres undefined)
  AF4-AF9 inh: 1.1
COc1ccc(NC(=O)c2cc(C3CCCCN3C(=O)c3ccccc3)on2)c(C)c1 (centres undefined)
  AF4-AF9 inh: -1.0
CCCC(=O)N1CC2(C1)CN(S(=O)(=O)c1ccc(C)cc1)[C@H](CO)c1[nH]c3cc(OC)ccc3c12
  AF4-AF9 inh: 2.0
Cc1cccc(-c2ccc([C@H]3[C@@H](CO)N4CCCCN(S(=O)(=O)c5cn(C)cn5)C[C@H]34)cc2)c1
  AF4-AF9 inh: 6.6
CN(C)CC(=O)N[C@H]1CC[C@H](CCNS(=O)(=O)c2ccccc2)O[C@@H]1CO
  AF4-AF9 inh: 0.5
Cc1cccc(NS(=O)(=O)c2ccc(C)c(C(=O)NCC(c3cccs3)N3CCOCC3)c2)c1 (centres undefined)
  AF4-AF9 inh: -0.4
CC(C)c1ccc(C(=O)N2CCCCC2c2cc(C(=O)NCc3cccnc3)no2)cc1 (centres undefined)
  AF4-AF9 inh: 1.3
COc1ccc(NC(=O)Nc2ccc3c(c2)C(=O)N([C@H](C)CO)C[C@H](C)[C@H](CN(C)C(=O)NC(C)C)O3)cc1
  AF4-AF9 inh: 1.7
CCC(=O)N1[C@@H]2Cn3c(cccc3=O)[C@H]1[C@@H](C(=O)NC1CCCCC1)[C@@H]2CO
  AF4-AF9 inh: -1.0
COc1ccc(NC(=O)Nc2ccc3c(c2)C(=O)N([C@H](C)CO)C[C@@H](C)[C@@H](CN(C)C)OCCCC[C@@H](C)O3)cc1
  AF4-AF9 inh: -2.0
N#C[C@@H]1[C@@H](c2ccc(/C=C/c3ccccc3)cc2)[C@@H](CO)N1C(=O)C1CC1
  AF4-AF9 inh: 0.6
C[C@@H]1CN([C@@H](C)CO)C(=O)c2cccc(NS(C)(=O)=O)c2O[C@H]1CN(C)Cc1ccc2c(c1)OCO2
  AF4-AF9 inh: -0.6
CC(C)CC#Cc1cnc2c(c1)C(=O)N([C@@H](C)CO)C[C@H](C)[C@@H](CN(C)C(=O)c1cccnc1)O2
  AF4-AF9 inh: -0.7

O=C(C1CCCC1)N1C[C@@H]2[C@H](c3ccccc31)[C@@H](CO)N2C(=O)c1ccccc1
  AF4-AF9 inh: 1.8
CC(C)(C)c1ccc(C#C[C@@H]2C=C[C@H]3OC(=O)CC/C=C/CCC(=O)OC[C@H]3O2)cc1
  AF4-AF9 inh: 2.1
CO[C@@H]1CN(C)C(=O)c2ccc(NC(=O)NC(C)C)cc2OC[C@H](C)N(C(=O)CN(C)C)C[C@@H]1C
  AF4-AF9 inh: -3.0
COc1ccc(S(=O)(=O)N(C)C[C@H]2Oc3c(NC(=O)C4CCOCC4)cccc3C(=O)N([C@H](C)CO)C[C@@H]2C)cc1
  AF4-AF9 inh: -5.7
COc1ccc2c3c([nH]c2c1)[C@@H](CO)N(S(=O)(=O)c1cn(C)cn1)CC31CN(CC2CCOCC2)C1
  AF4-AF9 inh: 0.7
C[C@H](CO)N1C[C@H](C)[C@@H](CN(C)Cc2cncnc2)Oc2ncc(/C=C/c3ccccc3)cc2C1=O
  AF4-AF9 inh: 8.0
CCCS(=O)(=O)NC(=O)C1(C)CCCN(C(=O)c2cc(C)nn2C(C)(C)C)C1 (centres undefined)
  AF4-AF9 inh: -1.6
O=C(C[C@@H]1C[C@H]2c3cc(NC(=O)Cc4ccncc4)ccc3O[C@H]2[C@@H](CO)O1)NCc1cccnc1
  AF4-AF9 inh: -0.4
Cc1cccc(-c2ccc([C@@H]3[C@H](CO)N4CCCCN(CCC(F)(F)F)C[C@@H]34)cc2)c1
  AF4-AF9 inh: 17.1
CCCNC(=O)C[C@@H]1C[C@@H]2c3cc(NC(=O)NC4CCCC4)ccc3O[C@@H]2[C@H](CO)O1
  AF4-AF9 inh: 2.0

CCC(=O)N1CCCC1(C)C(=O)Nc1ccc2scnc2c1 (centres undefined)
  AF4-AF9 inh: -5.5
CN(Cc1ccccc1F)c1cc2c(c3c1ccn3C)C1CCC2C1 (centres undefined)
  AF4-AF9 inh: ?
Cn1c(NCCOc2ccccc2Cl)nc2cc(-c3ccc(F)cc3)sc2c1=O
  AF4-AF9 inh: -1.7
C[C@@H]1CN([C@@H](C)CO)C(=O)c2cccc(NC(=O)c3nc4ccccc4s3)c2O[C@@H]1CN(C)Cc1ccc(C(F)(F)F)cc1
  AF4-AF9 inh: -1.3
CC(=O)N(C)C[C@H]1Oc2cc(C#CCC(C)C)ccc2S(=O)(=O)N([C@H](C)CO)C[C@H]1C
  AF4-AF9 inh: 0.4
CCCC#Cc1ccc2c(c1)O[C@H](CN(C)C(=O)c1cnccn1)[C@@H](C)CN([C@H](C)CO)S2(=O)=O
  AF4-AF9 inh: -1.1

Structural class: those above containing a cyano group.
N#C[C@@H]1[C@H](c2ccc(-c3ccc(F)cc3)cc2)[C@H](CO)N1C(=O)Cc1ccccc1
  AF4-AF9 inh: -5.3
N#C[C@@H]1[C@@H](c2ccc(/C=C/c3ccccc3)cc2)[C@@H](CO)N1C(=O)C1CC1
  AF4-AF9 inh: 0.6

Compound activity (PubChem)

This is a subset; count on the stated rates, not on these rows.
